Screens (PubChem)
NS1 inh – blocks influenza NS1 protein function | S. cerevisiae slowed by influenza A NS1, growth recovery by OD600 | Potency, µM (titrated, usually from 46.1 µM), inactives show at the top dose activity, positive = more growth | 0.4% of 270,000 active; active means well fitted rising curve with a large enough effect; inconclusive means small, poorly fitted or top-dose-only effect; inactive means no such curve, though single readings can be large or run the other way; note: nearly all actives have a fitted effect of over 50% in size
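Read-out: OD600 growth recovery of NS1-expressing budding yeast. Cells grown overnight at 30C in -URA glucose medium, washed, resuspended and diluted 1:100 in 2% galactose assay medium, pH 6.0. Same strain lacking NS1 served as positive control.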
LASV entry inh – blocks Lassa virus binding to or entry into cells; Potency, µM (doses to about 37.9 µM), inactives show top-dose activity change, negative = inhibition, actives largely listed as inhibitors; Lassa virus pseudotype entry inhibition, cell reporter; control for the full effect not named in the record; AID 540256; 1.2% of 300,000 active; active means well fitted inhibition curve with a large enough effect; inconclusive means small, poorly fitted or top-dose-only effect, or effect the other way; inactive means flat fitted curve, though single readings scatter; tested in HEK293 cells; note: % is set by controls: 0 for no effect and ±100 for the full control effect; nearly all actives have a fitted effect of over 50% in size; luciferase read-out
MARV entry inh – Marburg virus entry inhibition. AID 540276. Potency, µM (top dose mostly 37.8 µM), for the others: at the highest dose activity change, negative = inhibition, most hits filed as inhibitors. Marburg virus pseudotyped entry inhibition, cell reporter; control for the full effect not named in the record; about a third of the inactives were read at about 46 µM. 1.8% of 300,000 active; active = well fitted inhibition curve with a large enough effect; inconclusive = small, poorly fitted or top-dose-only effect, or effect the other way; inactive = flat fitted curve, though single readings scatter; tested in HEK293 cells; about a fifth of its hits are not listed in these tables; note: % is set by controls: 0 for no effect and ±100 for the full control effect; luciferase read-out
SARS PLpro yeast – inhibitors of SARS-CoV papain-like protease in yeast; 0.19% of 330,000 active; AID 485353; S. cerevisiae expressing SARS-CoV PLpro, growth rescue; control for the full effect not named in the record; Potency, µM (titrated, usually from 32.9 µM), for the others: top-dose activity, positive = growth rescue; active means well fitted rising curve with a large enough effect; inconclusive means small, poorly fitted or top-dose-only effect; inactive means no such curve, though single readings can be large or run the other way; note: 0% is about no effect; nearly all actives have a fitted effect of over 55% in size; growth read by luminescence after 48 h
Cruzain inh Det – blocks cruzain activity in presence of Triton detergent. purified cruzain, Z-FR-AMC fluorescence, 0.01% Triton. Potency, µM, for the others: max response, negative = inhibition, actives largely listed as inhibitors. P25779. AID 1478. 0.43% of 200,000 active;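 note: plate controls were neutral wells for no effect and buffer without enzyme for full effect; nearly all actives have a fitted effect of over 40% in size; top concentration of the series not given in the record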
Target sequence (P25779 123-467 limits assumed): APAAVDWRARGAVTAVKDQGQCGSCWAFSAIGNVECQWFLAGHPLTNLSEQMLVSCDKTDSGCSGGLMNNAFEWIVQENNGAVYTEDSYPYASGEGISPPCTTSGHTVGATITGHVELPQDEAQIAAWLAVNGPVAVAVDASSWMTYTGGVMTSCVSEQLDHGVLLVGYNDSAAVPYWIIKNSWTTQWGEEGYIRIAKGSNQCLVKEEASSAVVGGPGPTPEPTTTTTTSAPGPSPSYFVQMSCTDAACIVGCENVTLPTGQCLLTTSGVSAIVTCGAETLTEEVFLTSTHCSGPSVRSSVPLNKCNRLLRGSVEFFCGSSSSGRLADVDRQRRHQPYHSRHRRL
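In this qHTS format, compounds are incubated with 1.5 nM cruzain for 15 min at room temperature before 2 uM Z-FR-AMC is added. Release of AMC is followed at 360/450 nm, and progress is taken as the 60 s fluorescence difference.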
Cruzain inh noDet – cruzain (T. cruzi) inhibition without detergent; P25779; purified cruzain, Z-FR-AMC fluorescence, no detergent; Potency, µM, for the others: max response, negative = inhibition, hits mostly inhibitors; 2.3% of 200,000 active;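 note: plate controls were enzyme without inhibitor for no effect and buffer without enzyme for full effect; nearly all actives have a fitted effect of over 40% in size; top concentration of the series not given in the record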
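Detergent-free condition (0.00005% Triton X-100) in acetate buffer pH 5.5 with DTT. 1.5 nM enzyme and compound were pre-mixed 15 min, then 2 uM Z-FR-AMC substrate added; reaction progress from fluorescence change between first and third reads (60 s).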
RE007 growth inh – less growth of the S. pombe RE007 Vpr strain. S. pombe RE007 Vpr strain, BacTiter-Glo ATP luminescence, 24 h; control for the full effect not named in the record. Potency, µM (doses to about 92.2 µM), for the others: at the top dose activity change, negative = less growth. 0.21% of 360,000 active. AID 651644; active = well fitted falling curve with a large enough effect; inconclusive = small, poorly fitted or top-dose-only effect; inactive = no such curve, though single readings can be large or run the other way;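 note: % is set by controls: 0 for no effect and ±100 for the full control effect; nearly all actives have a fitted effect of over 50% in size; the assay follows cell death caused by Vpr and the record does not say whether a fall means rescue or toxicity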
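Fission yeast strain RE007, carrying one chromosomally integrated HIV-1 vpr copy, was seeded at OD 0.01 in PMG+AL medium with 23 nL pinned compound. After 24 h at 30 °C and 99% humidity, viability was read by BacTiter-Glo luminescence.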
2A StopGo – lowers the luciferase signal of an FMDV 2A StopGo reporter | human cells with a luciferase reporter of 2A StopGo recoding; control for the full effect not named in the record | Potency, µM (titrated, usually from 57.9 µM), for inactives: top-dose signal change, negative = less light | 1.2% of 410,000 active | AID 1159524; active = well fitted falling curve with a large enough effect; inconclusive = small, poorly fitted or top-dose-only effect; inactive = no such curve, though single readings can be large or run the other way; tested in HEK293T cells; note: % is set by controls: 0 for no effect and ±100 for the full control effect; nearly all actives have a fitted effect of over 45% in size; luciferase light after 4 h
Numbers without * were called inactive; ? = inconclusive; . = no result given; & = joins results of further samples; [ ] = remark or other dose. Unless noted, calls come from the whole dose curve; as a rule, active = well fitted curve in the direction sought with a large enough effect; inconclusive = small, poorly fitted or top-dose-only effect, or another doubt; inactive = no such curve, though single readings can be large; an effect the other way counts as inactive or inconclusive. Potency is the fitted concentration of half-maximal effect.

SMILES	NS1 inh	LASV entry inh	MARV entry inh	SARS PLpro yeast	Cruzain inh Det	Cruzain inh noDet	RE007 growth inh	2A StopGo
CCOC(=O)C1=C(O)/C(=C\c2cccc(OC)c2)N=C1C	?	3%	8%	11%	3.5%	-1%	-2%	.
CCc1cc(=O)oc2cc(C)cc(OCC(=O)NCc3cccnc3)c12	-8%	.	.	1%	.	.	-10%	-15%
COc1ccc(-n2nc(C(=O)O)nc2-c2ccccc2)cc1	-6%	?	-15%	-2%	2.6%	-8%	-3%	-3%
NC(=O)CC12CC3CC(C1)CC(CC(N)=O)(C3)C2	-7%	-4%	1%	11%	3.4%	8%	12%	-4%
CCOC(=O)Cc1csc(NC(=O)CSc2nnc(-c3ccc(F)cc3)o2)n1	0%	7%	?	0%	2.3%	-20%	7%	.
COc1ccc(OCCSc2nnnn2C2CCCCC2)cc1	-49%	-3%	?	-5%	-3.4%	-1%	-4%	-8%
Cc1ccc(-n2ncc3c(NCc4ccccc4)ncnc32)cc1C	.	?	.	.	-5.6%	-18%	.	41%[activator]
CC(C)CCNC(=O)NC(=O)CSc1nnc(-c2ccccc2F)n1N	0%	2%	-1%&-1%	-1%	5.1%	2%	11%	23%
Cc1cc(C)n2c(SCC(=O)N(CC(C)C)c3c(N)n(CC(C)C)c(=O)[nH]c3=O)nnc2n1	.	?	-1%	-5%	.	.	18%	1%
CCc1ccccc1NC(=O)CSc1nnc(-c2ccc(OC)cc2)s1	.	2%[46.1 µM]	.	.	-2.7%	-8%	.	5%
CCOC(=O)Cc1cnc(NC(=O)CSc2nc(N)cc(=O)[nH]2)s1	.	3%	0%[46.1 µM]	0%	.	.	6%	-10%
Cc1nc(SCC(=O)NCc2ccccc2)c2c(=O)n(C)c(=O)n(C)c2n1	-92%	.	.	4%	-4.1%	-14%	13%	32µM*
CCC1CCCCN1CCCNC(=O)CNC(=O)c1nn(-c2ccc(OC)cc2)c(=O)c2ccccc12 (stereo not drawn)	4%	.	-9%[46.1 µM]	0%	.	.	-13%	4%
CCc1ccc(-c2cc(C)no2)cc1S(=O)(=O)N1CCC(C)CC1	-5%	.	.	-15%	.	.	-11%	16%
C=CCc1c(C)nc(SCCC)[nH]c1=O	4%	-5%	?	-7%	3.7%	-13%	1%	.
COc1ccccc1/C=C/C(=O)Nc1cccnc1Cl	23%	.	.	1%	.	.	-9%	72%[activator]
COc1ccc(/C=N/NC(=O)C(O)(c2ccccc2)c2ccccc2)cc1OC	-17%	?	2%	9%	-6.1%	2%	12%	-14%
Cc1ccc(NC(=O)COc2ccc(C3SCCS3)cc2)cc1	22%	11%	?	3%	-2.3%	?	5%	-7%
CCCn1c(SCC(=O)Nc2nnc(CC)s2)nc2c1c(=O)n(C)c(=O)n2C	3%	.	.	-1%	-3.9%	0%	.	.
N#Cc1cccc(NC(=O)c2ccc3c(c2)N(Cc2cccc(Cl)c2)C(=O)c2ccccc2S3(=O)=O)c1	.	-15%[46.1 µM]	-20%[46.1 µM]	.	-2.8%	6.3µM*	.	-2%
CCOC(=O)C1Nc2ccc(Br)cc2C2C=CCC12 (stereo not drawn)	13%	-16%[46.1 µM]	-3%[46.1 µM]	-4%	.	.	9%	0%
COc1ccccc1NC(=O)C1=C(C)Nc2nc3ccccc3n2C1c1cccs1 (stereo not drawn)	-1%	?	?	-4%	-13%	3%	-11%	0%
CC(=O)COc1ccc2c(C)c(-c3ccccc3)c(=O)oc2c1	.	-9%	-25%[46.1 µM]	-7%	.	.	4%	-17%
Cc1ccc2[nH]c(SCC(=O)N3CCOCC3)nc2c1C	0%	16%	7%	2%	4.0%	-4%	9%	19%
COc1ccccc1NS(=O)(=O)c1ccc(O)c(C(=O)OCC(=O)N2CCc3ccccc32)c1	-20%	?	?	-1%	.	.	3%	11%
COc1cccc(NC(=O)NC2(C(=O)N3CCC(O)CC3)CCCCC2)c1	-11%	9%[46.1 µM]	6%[46.1 µM]	-2%	.	.	5%	1%
C=CCc1cccc(/C=N/NC(=O)c2ccccc2OC)c1O	.	-8%	?	-3%	.	.	-14%	44%[activator]
C=CCn1c(SCC(=O)Nc2cc(C)on2)nnc1C1COc2ccccc2O1 (stereo not drawn)	.	-1%[46.1 µM]	12%[46.1 µM]	1%	.	.	20%	-2%
CN(C)CCNC(=O)/C(=C/c1cccc([N+](=O)[O-])c1)NC(=O)c1ccccc1	-3%	3%	?	20%	-1.1%	-6%	24%	-20%
O=C(N=C1SCC(=O)N1c1ccccc1)c1ccco1	9%	-2%	?	?	-6.5%	3%	-6%	21%
O=C(c1cccc([N+](=O)[O-])c1)c1ccccn1	1%	.	.	0%	.	.	-6%	-16%
COc1ccc(CCNC(=O)C2CCCN(S(=O)(=O)c3ccc(OC)cc3)C2)cc1 (stereo not drawn)	-39%	-12%	0%[46.1 µM]	1%	.	.	1%	-25%
CCOC(=O)C1=C(c2ccccc2)NC(SCC)=C(C#N)C1c1cccnc1 (stereo not drawn)	2%	-21%	?	-1%	1.1%	0%	14%	-3%
CCC(=O)N1CCc2cc(S(=O)(=O)NCCC(=O)N3CCc4ccccc4C3)ccc21	7%	8%	-9%	1%	2.0%	10%	8%	-29%
COC(=O)c1cc2c(cc1NC(=O)c1cnn(-c3ccccc3)c1-n1cccc1)OCO2	.	16%[46.1 µM]	-6%[46.1 µM]	.	-1.9%	-5%	.	2%
CCOC(=O)/C(C#N)=N/Nc1c(S(=O)(=O)Cc2ccco2)csc1C(=O)OC	3%	.	.	0%	.	.	-3%	-3%
Cc1ccc2[nH]c(C)c(CCNCc3ccco3)c2c1	4%	.	.	5%	.	.	-9%	-12%
CC(C)c1ccc(C2NC(=S)NC3=C2C(=O)CCC3)cc1 (stereo not drawn)	6%	-17%	-15%	-2%	-2.7%	12%	-8%	-13%
Cc1cc(S(=O)(=O)Nc2cccc(-c3ccc(N4CCOCC4)nn3)c2)c(C)cc1Cl	.	?	.	.	-4.9%	?	.	41%[activator]
CC(=O)c1cccc(N(CC(=O)NC2CCCC2)C(=O)c2csnn2)c1	8%	22%[46.1 µM]	-19%[46.1 µM]	-1%	.	.	-12%	-3%
Clc1cccc(OCCN2CCCC2)c1	11%	19%	5%	-2%	.	.	-7%	-4%
CC(C)(C)CN1CCNC(=O)C1CC(=O)NCCc1ccccc1C(F)(F)F (stereo not drawn)	3%	.	.	2%	.	.	-4%	-3%
COCC1CCCN(C(=O)c2ccc3nc(Cc4cccc(Cl)c4)oc3c2)C1 (stereo not drawn)	-37%	?	20%	0%	.	.	0%	33%[activator]
CCc1cccc(CC)c1NS(=O)(=O)c1ccc2c(c1)CCN2C(=O)C1CC1	.	8%[46.1 µM]	-10%[46.1 µM]	.	-2.1%	5%	.	-8%
COc1ccc(NC(=O)/C(C#N)=C\c2ccc(N3CCOCC3)o2)cc1	4%	?	?	-1%	.	.	-10%	13%
CCNC(=S)N/N=C1\C(=O)c2cccc3cccc1c23	6%	1%	-26%[46.1 µM]	0%	2.3%	?	20%	-2%
Cc1c(C(=O)Nc2ccc(N3CCOCC3)cc2)oc2ccccc12	-2%	17%	?	2%	-7.2%	20%	-1%	27%
O=C(OC1Cn2c(=O)ccc(=O)n2C1)c1ccccc1	-2%	-4%	0%	-10%	-2.3%	7%	7%	0%
CCOC(=O)C1=NN(C(=O)c2ccco2)C2(CC2)C1	2%	-6%	?	15%	-1.7%	0%	-8%	4%
CCN(CC)C(=O)CN1CCN(c2ncccn2)CC1	-4%	5%	-2%	0%	3.2%	2%	0%	.
COc1ccc(/C=C/C(=O)OCc2nc3ccccc3c(=O)[nH]2)c(OC)c1	1%	3%	24%[46.1 µM]	0%	.	.	-2%	0%
COc1ccc(C(=O)C(C)OC(=O)CN2C(=O)c3ccccc3C2=O)cc1 (stereo not drawn)	.	0%[46.1 µM]	12%[46.1 µM]	-4%	.	.	-9%	-4%
Nc1ccc2cc3ccccc3cc2c1	.	.	.	.	0.5%	13µM*	-12%	31%[activator]
O=C(c1cc2ncc(Br)cn2n1)N1CCCCC1	.	6%	21%[46.1 µM]	-4%	.	.	-5%	21%
O=C(N/N=C/c1ccoc1)c1ccc([N+](=O)[O-])cc1	7%	?	12%[46.1 µM]	-4%	.	.	19%	13%
Cc1ccc(F)cc1CNC(=O)c1cc(COc2ccc3ncccc3c2)on1	0%	?	?	0%	.	.	-9%	25µM*
COc1ccc(NC(=O)NC(=O)c2ccccc2)cc1	-7%	.	.	-2%	.	.	-14%	80%[activator]
COc1ccc(CCC(=O)Nc2ncc(C)s2)cc1OC	-3%	.	.	-1%	.	.	-8%	9%
O=C(Nc1ccc(Cl)cc1)C1CCN(C(=O)c2cccs2)CC1	-20%	-24%	-6%[46.1 µM]	-1%	.	.	0%	-23%
CC(=O)c1ccc(NC(=O)C(C)Sc2ccccn2)cc1 (stereo not drawn)	-2%	5%[46.1 µM]	-3%[46.1 µM]	2%	.	.	-4%	26%

Carrying on:
SMILES	NS1 inh	LASV entry inh	MARV entry inh	SARS PLpro yeast	Cruzain inh Det	Cruzain inh noDet	RE007 growth inh	2A StopGo
CCCCN(CC)CCCNC(=O)c1cn(-c2ccc(OC)cc2)c(=O)c2ccccc12	-4%	.	.	0%	.	.	-11%	3%
COc1ccc(N(C)S(=O)(=O)c2cccc(C(=O)NC3=NCCS3)c2)cc1	-27%	11%	0%	-8%	-2.5%	0%	-7%	1%
CC(=O)N1CCc2c(sc3c2c(=O)n(CCc2ccccc2)c(=O)n3Cc2cccc(C)c2)C1	.	.	-3%[46.1 µM]	.	-3.4%	?	.	?
COc1cc(NC(=O)c2ccco2)c(OC)cc1NC(=O)CCC(=O)Nc1cccc(C)c1C	-6%	-11%	?	-5%	-2.4%	?	-12%	?
Cc1cc(C(=O)Nc2nnc(C(F)(F)F)s2)no1	-99%	0%	14%	-31%	-1.7%	-3%	-1%	38%[activator]
CC(=C/C(=O)O)/C=C/c1ccc(Cl)o1	-12%	4%	-4%	-2%	-8.8%	-7%	-1%	-9%

Hits appear at their usual frequency; 4.8% or so of the library scored in one or more.
